Screening data: PubChem BioAssay, National Center for Advancing Translational Sciences (NCATS)
D2 ag – Beta-Arrestin HTS for Positive Allosteric Modulators of the Human D2 Dopamine Receptor: Agonists; AID 624465, 2012; D(2) dopamine receptor (Homo sapiens), P14416; DiscoveRx PathHunter D2 beta-arrestin, luminescence, 90 min; 100% = 57 uM dopamine signal; 0.084% of 360,000 active; activation, % (no concentration beside the values); in the data active = activation above about 40%; inconclusive = about 15% to 40%; inactive = below about 15%; note: compound concentration not given in the record; the text of the record calls up to 30% inactive
Target sequence (P14416 whole entry, looked up): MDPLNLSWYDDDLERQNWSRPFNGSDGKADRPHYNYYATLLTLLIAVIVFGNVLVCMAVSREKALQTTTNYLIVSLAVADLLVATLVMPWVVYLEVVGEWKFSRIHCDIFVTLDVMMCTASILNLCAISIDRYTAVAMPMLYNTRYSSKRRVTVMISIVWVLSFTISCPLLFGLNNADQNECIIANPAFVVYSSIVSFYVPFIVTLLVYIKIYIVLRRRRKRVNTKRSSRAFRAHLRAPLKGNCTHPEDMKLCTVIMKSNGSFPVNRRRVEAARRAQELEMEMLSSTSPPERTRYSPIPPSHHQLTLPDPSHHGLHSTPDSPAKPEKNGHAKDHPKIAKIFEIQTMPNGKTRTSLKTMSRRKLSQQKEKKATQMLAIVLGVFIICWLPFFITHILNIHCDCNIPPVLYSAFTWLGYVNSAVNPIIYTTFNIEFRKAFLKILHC
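Agonist mode: compounds alone added to overnight-plated D2 PathHunter cells for 90 min at 37 C, with 57 uM final dopamine (EC100) defining full response. Beta-arrestin recruitment detected by chemiluminescent reagent, read after 1 h at ambient temperature.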
D2 potentiator – Beta-Arrestin HTS for Positive Allosteric Modulators of the Human D2 Dopamine Receptor: Potentiators | 0.23% of 360,000 active | potentiation, % (test concentration not listed) | D(2) dopamine receptor (Homo sapiens), P14416 | DiscoveRx D2 beta-arrestin cells, luminescence, 90 min; 100% = 57 uM dopamine signal; active = potentiation of 50% or more; inconclusive = 30% to 50%; inactive = 30% or less;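 note: compound concentration not given in the record; tested on top of an EC20 dose of dopamine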
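PathHunter beta-arrestin assay in DiscoveRx D2 cells. Compounds were added with an EC20 of dopamine (50 nM final) for 90 min at 37 deg C. Luminescence was read 1 h after detection reagent, with 57 uM dopamine as the EC100 control.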
TRPML1 ag – qHTS for Agonists of the Human Mucolipin Transient Receptor Potential 1 (TRPML1); Mucolipin-1 (Homo sapiens), Q9GZU1; activation, % (no concentration beside the values); AID 624414, 2012; TRPML1-expressing cells, Ca2+ dye fluorescence, FDSS; host cell line not named in the record; reference of the full effect not given here; 0.12% of 410,000 active; in the data active = activation above about 50%; inconclusive = about 30% to 50%; inactive = below about 30%; note: 0% is about no effect; the text of the record puts the active cut at 80%
Target sequence (Q9GZU1 whole entry, looked up): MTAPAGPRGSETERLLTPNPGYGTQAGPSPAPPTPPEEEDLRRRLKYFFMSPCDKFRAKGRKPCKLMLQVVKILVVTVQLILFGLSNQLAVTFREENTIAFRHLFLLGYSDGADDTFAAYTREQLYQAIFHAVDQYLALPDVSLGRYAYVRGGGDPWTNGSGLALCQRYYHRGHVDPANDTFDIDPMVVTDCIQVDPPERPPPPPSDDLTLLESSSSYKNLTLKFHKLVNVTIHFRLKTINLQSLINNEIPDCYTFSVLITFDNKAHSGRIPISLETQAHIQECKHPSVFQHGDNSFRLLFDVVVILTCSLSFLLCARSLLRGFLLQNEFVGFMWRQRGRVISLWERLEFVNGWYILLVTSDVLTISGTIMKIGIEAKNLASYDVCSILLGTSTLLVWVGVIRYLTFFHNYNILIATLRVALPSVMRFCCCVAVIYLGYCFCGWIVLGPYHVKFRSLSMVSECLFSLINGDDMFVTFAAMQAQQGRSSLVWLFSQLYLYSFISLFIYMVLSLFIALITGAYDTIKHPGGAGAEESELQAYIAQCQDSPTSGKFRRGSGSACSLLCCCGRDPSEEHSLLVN
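Tetracycline-induced TRPML1-DL cells are seeded and incubated overnight before loading with a no-wash Ca2+ dye and quencher. Agonist activity is taken from the 110 s fluorescence read following compound pin-transfer on an FDSS, before EC80 54-4 challenge.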
TRPML1 blocker – qHTS for Inhibitors of the Human Mucolipin Transient Receptor Potential 1 (TRPML1); 0.02% of 390,000 active; Mucolipin-1 (Homo sapiens), Q9GZU1; activity change, negative = inhibition, % (no concentration beside the values); TRPML1-inducible cells, Ca2+ dye fluorescence, FDSS; stronger effect = lower value; inhibition of EC80 agonist-evoked calcium signal; AID 624415, 2012; in the data active means activity change below about -50%; inconclusive means about -30% to -50%; inactive means above about -30%;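 note: stimulus is agonist 54-4 at its EC80 concentration; % is set by controls: 0 for no effect and ±100 for the full control effect; compound concentration not given in the record; the text of the record puts the active cut at -80%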
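TRPML1-DL cells, Tet-induced overnight (~16 h, 37 °C) at 1,500 cells/well, were loaded with Ca8 no-wash dye plus quencher for 45-90 min at room temperature. Compounds were pinned during FDSS kinetic reading; agonist 54-4 at EC80 (4 uM final) then added.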
PINK1 expr mod – A Quantitative High throughput Screen to Identify Chemical Modulators of PINK1 Expression; PINK1 immunofluorescence, high-content cytometry, 24 h; Potency, µM (series often up to 76.6 µM), for the others: at the highest dose activation (PINK1 increase), usual class: activators; AID 624263, 2012; 0.2% of 410,000 active; active = well fitted activation curve with a large enough effect; inconclusive = small, poorly fitted or top-dose-only effect; inactive = flat fitted curve, though single readings scatter; cell line not stated here;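 note: potency is the fitted concentration of half-maximal effect; % of control where 0% means no effect; nearly all actives have a fitted effect of over 65% in size; a mitochondrial uncoupler was the plate control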
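Cells are seeded, rested 12 hours, then given compound at five concentrations or DMSO for 24 hours. After fixation, blocking and antibody staining, PINK1 amount and mitochondrial localization are scored; CCCP serves as control.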
Six1-Eya2 inh – qHTS Assay for Inhibitors of the Six1/Eya2 Interaction; AlphaScreen GST-Six1/His-Eya2 binding, biochemical; stronger effect = lower value; control for the full effect not named in the record; 0.56% of 360,000 active; activity change, % (concentration not given with the values); Homeobox protein SIX1 (Homo sapiens) + Protein phosphatase EYA2 (Homo sapiens), …; in the data active = activity change below about -65%; inconclusive = about -30% to -65%; inactive = above about -30%; note: % is set by controls: 0 for no effect and ±100 for the full control effect
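Six1/Eya2 binding was read as AlphaScreen signal after compounds were pinned into GST-Six1 plus His-tagged Eya2 (5X stock 250/500 nM) in pH 8.0 Tris/NaCl/TCEP buffer, beads added, then incubated 1 h, 37 C, dark.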
Starred values were filed as active, the others as inactive; ? = inconclusive; / = not tested or not shown; [ ] = another dose, or the depositor's remark. Hits appear at their usual frequency; overall some 1% were active at least once.

# | canonical_smiles | D2 ag | D2 potentiator | TRPML1 ag | TRPML1 blocker | PINK1 expr mod | Six1-Eya2 inh
1 | CCOC(=O)c1[nH]cnc1C(=O)Nc1ccccc1C | 8.9 | -8 | 2.1 | 12 | -2.1% | -12
2 | O=C(O)c1ccc(NC(=S)NC(=O)C(c2ccccc2)c2ccccc2)cc1 | -6.2 | -2 | 0.0 | 6 | 2.8% | -7
3 | Cc1cnccc1CNC(=O)C1CCC(=O)N(Cc2ccc(Cl)cc2)C1 (configuration not stated) | 2.0 | -1 | 0.3 | -11 | 1.0% | 5
4 | CC(=O)c1c(O)cc2n(c1=O)-c1ccc(Cl)cc1C2(C)C | 0.6 | -13 | 1.6 | -8 | 1.1% | 3
5 | CC(=O)c1cccc(OCc2cc(C(=O)NCc3nc(C)c(C)s3)no2)c1 | 0.1 | -8 | 1.0 | 5 | -1.1% | -8
6 | Cc1oc(-c2ccc(Cl)cc2)nc1CSCC(=O)NC1CCN(Cc2ccccc2)CC1 | -2.7 | -34 | 2.1 | 17 | 0.5% | -1
7 | CCOc1cccc(=O)c2c(C)n(CC3CCCO3)c(C)c12 (configuration not stated) | -1.8 | -7 | 1.5 | -10 | -0.9% | -2
8 | COc1cc2ccccc2cc1C(=O)N1CC(C)CC(C)C1 (configuration not stated) | -1.7 | -9 | 2.1 | 13 | 0.0% | -12
9 | COc1ccc2c(c1OC)C(=O)OC2Nc1nc(-c2ccc(-c3ccccc3)cc2)cs1 (configuration not stated) | -5.7 | -22 | -0.5 | 36 | 3.8% | -14
10 | Cc1ccc(Oc2nccc(-c3ccc(Cl)cc3)n2)cc1 | 1.4 | -16 | 0.5 | 47 | 3.0% | 10
11 | COc1ccc(N2CCN(c3ncccc3C#N)CC2)cc1 | -2.0 | -11 | -0.4 | 1 | 1.8% | -21
12 | COc1cccc(C=Nc2ccc(C)c(F)c2)c1O | -4.7 | -15 | 0.5 | 1 | 1.9% | 1
13 | CCN(Cc1ccccc1)C(=O)COC(=O)[C@@H]1CCCN1C(=O)c1cccs1 | -4.0 | -10 | 3.1 | 26 | -2.5% | -4
14 | Oc1ccc(N=Cc2sc3ccccc3c2Cl)cc1 | ? | ? | 0.2 | 53 | 1.8% | ?
15 | O=C(O)c1nn(-c2ccccc2)nc1-c1nn(-c2ccccc2)nc1C(=O)O | -3.3 | -6 | 0.1 | -1 | -0.4% | -1
16 | CCc1cccc(CC)c1NC(=S)N1CCn2cccc2C1c1ccncc1 (configuration not stated) | 4.8 | -4 | 1.4 | 5 | -0.5% | 2
17 | COc1ccccc1N1CCN(C(=O)CSc2nc3ccccc3nc2Cc2ccc(F)cc2)CC1 | / | / | 2.7 | 17 | 1.7% | /
18 | Cc1ccccc1C(=O)N1CCC(C(=O)Nc2ccccn2)CC1 | 2.6 | -13 | 0.2 | 10 | -0.4% | 12
19 | O=C1O[C@@H](c2ccccc2)C[C@@H](O)C(=O)CCCc2ccccc21 | / | / | -0.2 | / | 0.7% | 0
20 | CCc1nnc(NC(=O)CSc2nnc(-c3cccnc3)n2CCc2ccccc2)s1 | 1.3 | 1 | 4.4 | 5 | -2.0% | 6

The final 3 entries of the section above come first, to join the parts:
# | canonical_smiles | D2 ag | D2 potentiator | TRPML1 ag | TRPML1 blocker | PINK1 expr mod | Six1-Eya2 inh
18 | Cc1ccccc1C(=O)N1CCC(C(=O)Nc2ccccn2)CC1 | 2.6 | -13 | 0.2 | 10 | -0.4% | 12
19 | O=C1O[C@@H](c2ccccc2)C[C@@H](O)C(=O)CCCc2ccccc21 | / | / | -0.2 | / | 0.7% | 0
20 | CCc1nnc(NC(=O)CSc2nnc(-c3cccnc3)n2CCc2ccccc2)s1 | 1.3 | 1 | 4.4 | 5 | -2.0% | 6
21 | O=C(CCNS(=O)(=O)c1cccs1)NCc1cccs1 | -1.8 | -6 | -0.1 | 2 | -0.8% | -3
22 | COc1ccc(NC(=O)c2cc(-c3cc(F)ccc3OC(C)C)n[nH]2)c(C)c1 | 8.8 | 2 | 0.1 | / | 1.3% | -8
23 | Cc1ccc(C2C3=C(CCCC3=O)OC3=C2C(=O)CCC3)cc1 | -4.3 | 0 | -0.4 | 1 | 4.8% | 16
24 | COc1ccc(-c2cc3c(=O)n(CC(=O)Nc4cccc(Cl)c4)nc(C)n3n2)cc1 | 0.5 | -31 | -0.4 | 3 | 4.7% | -11
25 | NC(=S)N=Nc1c(O)n(CCCl)c2ccc(Br)cc12 | -3.4 | -7 | 2.4 | 19 | 1.6% | -9
26 | Cc1ccc(CNS(=O)(=O)CCNC(=O)c2ccccc2)cc1 | -0.7 | -8 | 0.6 | 8 | 0.9% | -8
27 | CCCCCCN1CCN(C2CN(CCc3ccccc3)S(=O)(=O)C2)CC1 (configuration not stated) | -2.3 | -11 | -0.6 | -11 | 4.8% | -4
28 | CCOC(=O)C1=C(C)OC(N)=C(C#N)C1c1cc(SCC)oc1C (configuration not stated) | -2.4 | -5 | 1.6 | -5 | 4.6% | -3
29 | Cc1ccccc1NC(=O)Cn1c(=O)sc2ccccc21 | -4.2 | 12 | -0.5 | -7 | -0.1% | 8
30 | CC(CCCN1CCCC1)Nc1ccnc2cc(Cl)ccc12 (configuration not stated) | 4.7 | -7 | -0.6 | -4 | 7.5% | 3
31 | O=C(O)c1cc(-c2c[nH]c3ccccc23)nc2ccc3ccccc3c12 | -5.2 | -11 | 1.8 | -11 | 0.4% | 1
32 | CC(C)CC(O)C1CCN(C(=O)CCc2nnc(-c3ccccc3)o2)CC1 (configuration not stated) | 1.0 | 0 | 1.0 | 12 | -4.1% | 4
33 | C[C@H](CO)N1C[C@H](C)[C@@H](CN(C)C(=O)Nc2ccc(C(F)(F)F)cc2)Oc2c(NC(=O)c3ccncc3)cccc2C1=O | 0.1 | / | 0.0 | -1 | 3.4% | 13
34 | COc1ccc(NC(=O)CN(C)C2CCS(=O)(=O)C2)cc1 (configuration not stated) | -1.1 | -2 | 0.4 | 2 | 1.7% | -1
35 | Cc1cc(C(=O)Cn2nc(C(=O)O)c3ccccc3c2=O)c(C)n1CCc1ccc(F)cc1 | -1.2 | 5 | 1.4 | 14 | -1.4% | 0
36 | CC(=O)NC(Cc1ccccc1)C(=O)NC1CCN(c2ncccc2[N+](=O)[O-])CC1 (configuration not stated) | 1.0 | 8 | -0.1 | 7 | 5.2% | 17
37 | COc1ccc(Cl)c2sc(NC(=O)C3=COCCO3)nc12 | -2.9 | -4 | 1.1 | -6 | 0.3% | -7
38 | COc1ccccc1-c1nc(SCc2ccccn2)n[nH]1 | -2.6 | -7 | 0.8 | 4 | -1.1% | 1
39 | COc1ccc(/C=N/NC(=O)Cn2nc(C)c([N+](=O)[O-])c2C)cc1 | -2.8 | -5 | 0.3 | 2 | 1.3% | -7
40 | CC1(C)CC(=O)C(C2C3=C(CC(C)(C)CC3=O)Oc3c(Br)cc(Br)cc32)=C(O)C1 (configuration not stated) | 0.5 | 13 | / | / | 22µM* | ?

Copied from above, nos. 11–17
# | canonical_smiles | D2 ag | D2 potentiator | TRPML1 ag | TRPML1 blocker | PINK1 expr mod | Six1-Eya2 inh
11 | COc1ccc(N2CCN(c3ncccc3C#N)CC2)cc1 | -2.0 | -11 | -0.4 | 1 | 1.8% | -21
12 | COc1cccc(C=Nc2ccc(C)c(F)c2)c1O | -4.7 | -15 | 0.5 | 1 | 1.9% | 1
13 | CCN(Cc1ccccc1)C(=O)COC(=O)[C@@H]1CCCN1C(=O)c1cccs1 | -4.0 | -10 | 3.1 | 26 | -2.5% | -4
14 | Oc1ccc(N=Cc2sc3ccccc3c2Cl)cc1 | ? | ? | 0.2 | 53 | 1.8% | ?
15 | O=C(O)c1nn(-c2ccccc2)nc1-c1nn(-c2ccccc2)nc1C(=O)O | -3.3 | -6 | 0.1 | -1 | -0.4% | -1
16 | CCc1cccc(CC)c1NC(=S)N1CCn2cccc2C1c1ccncc1 (configuration not stated) | 4.8 | -4 | 1.4 | 5 | -0.5% | 2
17 | COc1ccccc1N1CCN(C(=O)CSc2nc3ccccc3nc2Cc2ccc(F)cc2)CC1 | / | / | 2.7 | 17 | 1.7% | /

Following part:
# | canonical_smiles | D2 ag | D2 potentiator | TRPML1 ag | TRPML1 blocker | PINK1 expr mod | Six1-Eya2 inh
41 | CC1CCN(CC(=O)NNC(=O)c2cccc(Br)c2)CC1 | -1.2 | -19 | -0.3 | 7 | 0.0% | 0
42 | O=C(Nc1cccnc1)c1ccc(Br)s1 | -3.3 | 7 | 1.5 | 4 | -0.3%[38.3 µM] | 0
43 | COc1ccc(CNn2c(-c3cccc(C)c3)nc3ccccc3c2=O)cc1OC | 0.5 | -14 | -0.4 | 17 | 0.8%[38.3 µM] | 0
44 | Cc1nc(SCC2(C)CC2(Cl)Cl)n[nH]1 (configuration not stated) | 1.2 | -3 | 0.2 | 0 | -1.8% | 8
45 | CNC(=S)N/N=C(\C)c1ccc(Cl)c(Cl)c1 | -1.8 | -3 | 2.1 | 14 | 0.4% | -3
46 | c1ccc(CN2CCC(N=C3NN=C(c4ccc5c(c4)OCCO5)CS3)CC2)cc1 | -6.1 | -31 | -0.1 | -2 | 0.6% | ?
47 | CCOC(=O)c1c(-c2ccc(Cl)cc2)c(C#N)c(=O)n(N)c1N | -2.3 | -11 | 3.1 | 51 | 5.8% | 10
48 | CCOc1ccccc1C1C(C(=O)OC)=C(N)OC2=C1C(=O)CCC2 (configuration not stated) | -2.5 | -3 | -0.6 | -4 | 1.5%[38.3 µM] | 0
49 | CC(NC(=O)CSc1nc2ccccc2n1CCC#N)c1ccc(F)cc1 (configuration not stated) | -2.0 | 7 | 0.7 | 1 | 2.9% | 5
50 | CCSc1nc(C)c(CCOc2cccc(C)c2)c(=O)[nH]1 | -3.5 | -5 | -0.7 | -5 | 8.2% | 7
51 | O=C(COC(=O)c1cc([N+](=O)[O-])ccc1N1CCOCC1)Nc1c(Cl)cccc1C(F)(F)F | -1.1 | -11 | -0.6 | -12 | 12% | 1
52 | CCn1c(=O)c2sccc2n2c(CCCC(=O)N3CCN(c4cc(Cl)ccc4C)CC3)nnc12 | / | / | 0.0 | 40 | 0.2% | /
53 | CC(Oc1ccccc1)C(=O)Nc1ccccc1C(=O)OCc1cc(=O)n2nc(C3CC3)sc2n1 (configuration not stated) | / | / | 0.5 | 18 | -1.8% | /
54 | COc1cc(N(C)C)c(NC(C)=O)cc1C(=O)O | -1.1 | -3 | -0.3 | -10 | / | 5
